High-throughput results as filed in PubChem BioAssay.
Insulin prom inh = inhibitors of insulin promoter-driven GFP, primary screen, imaging, TRM-6 cells (human fetal islet line), eGFP reporter, cell count; reporter expression induced with tamoxifen; inhibition, % at 2 µM; actives 0.9% (n = 130,000); AID 1273, 2008;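 active = inhibition above the mean plus 3 SD, with well images judged a real hit on visual review, cut at about 60% in these data, passing the limit was not always enough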
GALR2 agonist = GALR2 receptor agonists, primary screen, cell-based; GALR2-expressing cells, agonist activation read-out; activation, %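 (tested at 5 µM)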; actives 0.48% (n = 140,000);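 active = above mean plus 3 SD of all compounds, about 5% in these data, not always enough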;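 note: 0% = vehicle buffer wells and 100% = reference agonist at full effect; tested in CHO reporter cells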
Target sequence (O43603 whole entry, looked up): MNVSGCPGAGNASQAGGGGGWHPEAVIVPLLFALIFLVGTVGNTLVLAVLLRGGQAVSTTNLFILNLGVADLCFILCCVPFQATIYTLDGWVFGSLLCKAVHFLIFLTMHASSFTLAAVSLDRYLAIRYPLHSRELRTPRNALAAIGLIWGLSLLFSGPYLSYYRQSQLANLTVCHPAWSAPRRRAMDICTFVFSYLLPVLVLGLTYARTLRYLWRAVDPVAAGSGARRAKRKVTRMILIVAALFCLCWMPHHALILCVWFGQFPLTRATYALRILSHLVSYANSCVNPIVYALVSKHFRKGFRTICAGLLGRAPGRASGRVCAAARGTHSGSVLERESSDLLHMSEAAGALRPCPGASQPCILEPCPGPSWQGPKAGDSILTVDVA
PKD1 inh = inhibitors of human PKD1 kinase, biochemical, fluorescence polarization | Serine/threonine-protein kinase D1 (Homo sapiens), Q15139 | PKD1 kinase fluorescence polarization assay | inhibition, %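 (about 10 µM by stock and volumes)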 | actives 0.056% (n = 200,000);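 active = inhibition of 50% or more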;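 note: controls were vehicle for no effect and a reference inhibitor for full effect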
HSV augment = enhancers of HSV replication in host cells, fold increase, host cell viability | HSV replication augmentation in cells | maximum fold increase | actives 0.005% (n = 220,000) | AID 1956, 2009;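 active = peak rise of 1.5-fold or more in the series; tested in PC3 cells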;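 note: first round at 10 µM; read as green reporter fluorescence; hits show the peak of a series up to 25 µM; 1 = signal of infected wells without compound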
RGS16-Gao HTS = modulators of RGS16 binding to Galphao, primary screen, biochemical, human proteins, multiplexed bead flow cytometry; binding response (% of control), % at 10 µM; AID 1441, 2008; bead-based flow cytometry RGS16-Galphao binding, fluorescence; actives lie on both sides; actives 0.38% (n = 220,000);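 active = below 25% or above 175%, edge rows of some plates excepted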;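 note: Galphao activated by GDP with aluminum fluoride before binding; 100% = wells without compound and 0% = beads without RGS; some results beyond the cut were filed as inactive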
Insulin prom inh cell count = also measured in Insulin prom inh; calls as there; normalized cell count, %; measured here: cell count, toxicity; reference of the scale not given here;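 cells exposed to compound for 48 h; stained nuclei by imaging scaled within each plate; lower means fewer cells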
HSV augment primary fold = recorded beside HSV augment, whose call it bears; fold increase; compound at 10 µM; measured here: primary screen fold increase 10 uM; tested in PC3 cells;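 GFP signal in the first replicate; 1 = infected wells without compound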
Active calls of the source: *; i = inactive; · = not tested or not shown; & = joins results of further samples.

The first 2 records as a preview:
Keys – A = Insulin prom inh; B = Insulin prom inh cell count; C = GALR2 agonist; D = PKD1 inh; E = HSV augment; F = HSV augment primary fold; G = RGS16-Gao HTS
CC(=O)C1=C(O)C(=O)N(c2ccc(Br)cn2)C1c1ccc(Br)cc1 (centres undefined)
  A: ·; B: ·; C: ·; D: ·; E: i; F: 0.74; G: 100
CCOC(=O)C1=C(N)n2c(s/c(=C\c3cccs3)c2=O)=C(C(=O)OCC)C1c1cccs1 (centres undefined)
  A: -22; B: 94; C: -1.7; D: -1; E: i; F: 0.76; G: 105

The whole of this part, previewed entries included:
Keys – A = Insulin prom inh; B = Insulin prom inh cell count; C = GALR2 agonist; D = PKD1 inh; E = HSV augment; F = HSV augment primary fold; G = RGS16-Gao HTS
CC(=O)C1=C(O)C(=O)N(c2ccc(Br)cn2)C1c1ccc(Br)cc1 (centres undefined)
  A: ·; B: ·; C: ·; D: ·; E: i; F: 0.74; G: 100
CCOC(=O)C1=C(N)n2c(s/c(=C\c3cccs3)c2=O)=C(C(=O)OCC)C1c1cccs1 (centres undefined)
  A: -22; B: 94; C: -1.7; D: -1; E: i; F: 0.76; G: 105
C1CCc2nnc(-c3nnc4n3CCCCC4)n2CC1
  A: -21; B: 127; C: -2.6; D: -2; E: i; F: 0.94; G: 96
Cc1ccc(-n2c(O)c(/C=N/n3cnnc3)c3ccccc3c2=O)cc1
  A: 15; B: 249; C: -0.9&-1.0; D: -9&-6; E: i; F: 0.83&1.1; G: 103&107
COc1ccc2cc(C(=O)C3CCCN(C(=O)CCc4ccccn4)C3)ccc2c1 (centres undefined)
  A: ·; B: ·; C: ·; D: -3; E: i; F: 1; G: 102
CC(C)Nc1nnc(Sc2ccc(Cl)cc2[N+](=O)[O-])s1
  A: ·; B: ·; C: -0.2; D: -9; E: ·; F: ·; G: 107
O=[N+]([O-])c1ccc(N2CCN(C(=S)Nc3ccccc3)CC2)cc1
  A: 21; B: 158; C: ·; D: 4; E: i; F: 0.93; G: 100
Cc1c(C#N)c(N)nc2c3c(sc12)NC(=O)CC3c1ccc(F)cc1 (centres undefined)
  A: ·; B: ·; C: -0.9; D: -8; E: i; F: 0.97; G: 81
CC(=O)c1ccc(NC(=O)Cn2nc(C)cc2C)cc1
  A: 12; B: 139; C: -4.2; D: -7; E: i; F: 1.1; G: 94
CCOC(=O)Cn1c(-c2ccccc2)nc2ccccc2c1=O
  A: ·; B: ·; C: -1.9; D: 7; E: i; F: 0.98; G: 90
COc1ccc2c(c1)c(CC(=O)Nc1ccccc1OC)c(C)n2C(=O)c1ccc(Cl)cc1
  A: ·; B: ·; C: -0.3; D: 2; E: i; F: 1.1; G: 105
CCC1C(=O)N=C(SCC(=O)Nc2cccc3ccccc23)NC1=O (centres undefined)
  A: -16; B: 89; C: -1.2; D: -5; E: i; F: 0.94; G: 96
CCCCC(c1nnnn1CCOC)N1CCN(C)CC1 (centres undefined)
  A: -33; B: 140; C: -1.5; D: -7; E: i; F: 0.85; G: 116
C=CCn1cnc2sc(C(=O)Nc3ccccc3OC)c(C)c2c1=O
  A: -50; B: 111; C: ·; D: 7; E: i; F: 0.9; G: 110
Cc1[nH]c2ccccc2c1-c1nc2ccccc2[nH]1
  A: ·; B: ·; C: -1.5; D: 9; E: i; F: 1; G: 101
O=C(NCc1ccccn1)C1CCCN(S(=O)(=O)c2ccccc2)C1 (centres undefined)
  A: i; B: 33; C: -2.8; D: -6; E: i; F: 1.4; G: 84
CCOC(=O)CCCNC(=O)CN1C(=O)NC2(CCCCCC2)C1=O
  A: ·; B: ·; C: -1.7; D: -4; E: i; F: 1; G: 104
CC1(C)CC(=O)C(C2=NC3(CCCCCC3)Cc3ccccc32)=C(O)C1
  A: ·; B: ·; C: ·; D: ·; E: i; F: 0.97; G: 82
CC(=O)c1cccc(NC(=O)N2C3CCC2CC(NC(=O)C2CC2)C3)c1 (centres undefined)
  A: ·; B: ·; C: ·; D: 2; E: i; F: 1.1; G: 105
COC(=O)c1ccccc1C(=O)N1CCOCCOCCOCC1
  A: 21; B: 72; C: -1.2; D: -11; E: i; F: 1; G: 116
COc1cc(C2C3CN(C)CC=C3C(C#N)=C(N)C2(C#N)C#N)ccc1OC(C)C (centres undefined)
  A: -257; B: 96; C: -0.9; D: -4; E: i; F: 1.1; G: 98
C/C(=N/N1CCN(c2ccccc2)CC1)c1cccc([N+](=O)[O-])c1
  A: ·; B: ·; C: ·; D: 1; E: i; F: 0.96; G: 103
COc1ccc(C)cc1NC(=O)NCCC1=CCCCC1
  A: -4; B: 81; C: -1.5; D: 3; E: i; F: 1.1; G: 92
CCCCN(CCCC)CCNC(=O)CNC(=O)c1cccs1
  A: 18; B: 114; C: -2.7; D: -10; E: i; F: 1.1; G: 134
O=C(CSc1n[nH]c(=O)[nH]c1=O)Nc1ccccc1C(=O)c1ccccc1
  A: ·; B: ·; C: ·; D: ·; E: i; F: 1; G: 111
NC(=O)Nc1ccc(C(=O)OCC(=O)N(Cc2ccccc2)C2CCS(=O)(=O)C2)cc1 (centres undefined)
  A: 36; B: 100; C: ·; D: 6; E: ·; F: ·; G: 113
CC1=C(C#N)C(c2ccc3ncccc3c2)C(C#N)=C(C)N1
  A: 56; B: 68; C: -0.6; D: 2; E: i; F: 0.92; G: 99
S=c1[nH]nc(-c2cccs2)n1/N=C/c1cn(-c2ccccc2)nc1-c1ccccc1
  A: ·; B: ·; C: ·; D: ·; E: i; F: 0.83; G: 95
COc1ccc(/C=C2\SC(=S)N(NC(=O)c3csc4c3CCCC4)C2=O)cc1
  A: 37; B: 67; C: -3.0; D: 9; E: i; F: 1; G: 83
O=C(c1ccc(Cl)cc1)N1CCCCC(Cl)C1=O (centres undefined)
  A: 11; B: 65; C: ·; D: -12; E: i; F: 1.1; G: 103
COc1ccc(-c2nc(C(=O)O)cs2)cc1OC
  A: 20; B: 112; C: ·; D: -10; E: i; F: 0.94; G: 102
O=C(O)C(C(=O)O)=C1C2CC3CC(C2)CC1C3
  A: ·; B: ·; C: ·; D: ·; E: i; F: 0.97; G: 99
Cc1ccc(C(=O)SC2=NCCS2)cc1
  A: 26; B: 104; C: -1.8; D: 4; E: i; F: 0.84; G: 102
Cc1cc(C)nc(/N=C2\NC(=O)CC3C(=O)NCCN23)n1 (centres undefined)
  A: 8; B: 108; C: -1.5; D: 4; E: i; F: 0.86; G: 10*
COC(=O)C(=Nc1ccccc1)/C(C(=O)C(=O)N(C)c1ccccc1)=C(\O)c1ccc(Cl)cc1
  A: ·; B: ·; C: ·; D: -7; E: i; F: 0.74; G: 106
CN1CC2(Cc3c1ccc1ccccc31)C(=O)OC(C)(C)OC2=O
  A: 0; B: 104; C: -0.8; D: -8; E: i; F: 1; G: 104
Cc1ccc(N=Nc2c(O)n(CN3CCOCC3)c3ccccc23)cc1
  A: -3; B: 71; C: -2.6; D: 9; E: ·; F: ·; G: 99
CC(=O)c1ccc(Oc2ccc(C(=O)c3ccc(C)c(C)c3)cc2[N+](=O)[O-])cc1
  A: 0; B: 95; C: -1.6; D: -7; E: i; F: 1.1; G: 53
O=C(Nc1ccccc1)N1CCCC1c1cccs1 (centres undefined)
  A: ·; B: ·; C: ·; D: ·; E: i; F: 1.1; G: 96
O=C(CSC1=NCCS1)N1CCCCCC1
  A: 25; B: 109; C: -1.1; D: -10; E: i; F: 1.1; G: 105

Exported with two lines to a compound: part of the list above.
Below each compound – Insulin prom inh | Insulin prom inh cell count | GALR2 agonist | PKD1 inh | HSV augment | HSV augment primary fold | RGS16-Gao HTS
- COc1ccc(-c2nc(C(=O)O)cs2)cc1OC
 : 20 | 112 | · | -10 | i | 0.94 | 102
- Cc1cc(C)nc(/N=C2\NC(=O)CC3C(=O)NCCN23)n1 (centres undefined)
 : 8 | 108 | -1.5 | 4 | i | 0.86 | 10*

Single records (already shown).
Entry for COC(=O)C(=Nc1ccccc1)/C(C(=O)C(=O)N(C)c1ccccc1)=C(\O)c1ccc(Cl)cc1 = Insulin prom inh = ·; Insulin prom inh cell count = ·; GALR2 agonist = ·; PKD1 inh = -7; HSV augment = i; HSV augment primary fold = 0.74; RGS16-Gao HTS = 106
Entry for Cc1ccc(C(=O)SC2=NCCS2)cc1 = Insulin prom inh = 26; Insulin prom inh cell count = 104; GALR2 agonist = -1.8; PKD1 inh = 4; HSV augment = i; HSV augment primary fold = 0.84; RGS16-Gao HTS = 102
